VDR inhibitor: Inhibitors of the vitamin D receptor (VDR): qHTS | Vitamin D3 receptor (Homo sapiens), P11473 | VDR-SRC2-3 peptide fluorescence polarization, 2 h | Potency, µM, for the others: max response, negative = inhibition, usual class: inhibitors | 400,000 tested, 0.93% active | AID 504847, 2011; active means well fitted inhibition curve with a large enough effect; inconclusive means small, poorly fitted or top-dose-only effect, or another doubt; inactive means no such curve, though single readings can be large or run the other way; further: series mostly up to about 120 µM
Target sequence (P11473 whole entry, looked up): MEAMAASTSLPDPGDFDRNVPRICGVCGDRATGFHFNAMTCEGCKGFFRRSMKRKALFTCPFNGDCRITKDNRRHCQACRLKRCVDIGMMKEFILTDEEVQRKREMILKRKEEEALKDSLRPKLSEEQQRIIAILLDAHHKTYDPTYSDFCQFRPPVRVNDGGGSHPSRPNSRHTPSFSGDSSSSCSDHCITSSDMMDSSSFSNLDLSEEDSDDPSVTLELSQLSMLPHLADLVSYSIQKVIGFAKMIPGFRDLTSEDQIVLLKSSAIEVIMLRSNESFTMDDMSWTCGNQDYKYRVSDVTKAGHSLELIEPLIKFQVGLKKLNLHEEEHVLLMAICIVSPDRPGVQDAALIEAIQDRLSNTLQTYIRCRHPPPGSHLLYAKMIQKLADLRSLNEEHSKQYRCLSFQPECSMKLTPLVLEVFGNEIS
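VDR–SRC2-3 interaction, FP format. Cmpds 23 nl via pintool, brief spin, 2 h ambient incubation.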
Active calls of the source: *; ? = inconclusive; & = joins results of further samples. On the % scale 0 is the no-effect control and ±100 the full control effect; potency means the concentration at half of the fitted maximal effect. These rows are one share of the data (hit frequency here may not be typical).

molecule	VDR inhibitor
CCc1nnc(SCC(=O)Nc2nc(C)c(C(=O)N(C)C)s2)n1CC	1.3%
Cc1cccc(-c2nc3c4ccccc4nc(N4CCN(c5cccc(Cl)c5)CC4)n3n2)c1	-5.8%
Cc1nnc(NC(=O)c2cccc(S(=O)(=O)N3CCN(C)CC3)c2)s1	?
N#Cc1ccccc1S(=O)(=O)N1CCN(C(=O)c2cc3c(s2)CCC3)CC1	-17.1%
COc1cccc(CNC(=O)C2CCCN(c3nc4ccccc4o3)C2)c1 (configuration not stated)	-6.4%
CSc1nn(-c2ccc(C(=O)OCC(=O)NC(=O)NC(C)C)cc2)c(=S)s1	0.1%
COc1ccc(C2(C(=O)NCc3ccco3)CCCC2)cc1OC	-2.1%
CCCCC(O)CN1CCC(c2ccccc2)CC1 (configuration not stated)	9.4%
CC(C)Cc1nnc(NC(=O)CCC(=O)N2CCN(c3ccccc3)CC2)s1	-13.2%
CCCCN1CC(=O)N2[C@@H]3c4cc(Br)ccc4OC[C@@H]3[C@H](C(=O)OCC)[C@]2(C)C1=O	-15.4%
CCNC(=S)N(Cc1cc2c(C)ccc(C)c2[nH]c1=O)C1CCCC1	-10.3%
Cc1ccc(NC(=O)CSc2ncn[nH]2)c([N+](=O)[O-])c1	-29.6%
Cc1ccc(/C=N/NC(=O)CSc2nc3ccccc3[nH]2)o1	-11.1%
O=C(CNS(=O)(=O)c1ccc2ccccc2c1)OCc1nnc(-c2ccccc2)o1	6.5%
Cc1cc(C)c(NC(=O)/C(=C/c2ccco2)c2ccccc2)c(C)c1	-7.0%
COc1ccccc1Oc1cc(C#N)c(C#N)cc1-n1nnc2ccccc21	-1.2%
O=c1[nH]cnc(O)c1C(c1ccc([N+](=O)[O-])cc1)c1c(O)nc[nH]c1=O	-26.7%
CCOc1ccccc1C1CC(=O)Nc2cc(OC)c(OC)c(OC)c21 (configuration not stated)	-5.0%
COc1ccc(OC)c(C(=O)CSc2nc3ccccc3n2CC(=O)NC(C)(C)C)c1	1.7%
c1ccc(CCNc2nc(-c3ccncc3)nc3ccccc23)cc1	5.4%
CSc1ccc(CCNC(=O)CN2C(=O)CCSc3ccccc32)cc1	-1.8%
CCCc1nc2ccccc2c(C(=O)OCC(=O)Nc2c(C)n(C)n(-c3ccccc3)c2=O)c1CC	7.1%
O=C(Nc1ccc2nc(N3CCOCC3)sc2c1)c1ccccc1	20.1%
CCOC(=O)C1=C(C)OC(N)=C(C#N)C1c1ccoc1 (configuration not stated)	-6.9%
C=C1C[C@H](O[C@@H]2O[C@H](CO)[C@@H](O)[C@H](O)[C@H]2O)[C@@H]2[C@H](OC(=O)[C@H]2C)[C@H]2[C@H](C)[C@H](O)C[C@@H]12	2.0%
CC(Sc1nnc(NC2CC2)s1)C(=O)Nc1ccc(S(N)(=O)=O)cc1 (configuration not stated)	-7.9%
Cc1ccc2onc(CNC(=O)N(C)Cc3ccccc3)c2c1	7.1%
COC(=O)CN(c1ccc(F)cc1)S(=O)(=O)c1ccc2c(c1)OCCO2	4.6%
Cc1cc(C)n2nc(C(=O)N3CCOCC3)nc2n1	-0.6%
CCCCC[C@H](O)/C=C/[C@@H]1[C@@H](C/C=C\CCCC(=O)O)[C@H]2CO[C@@H]1C2	3.6%&13.1%&-7.8%
Cc1nn(-c2ccccc2)c(C)c1/C=N/NC(=O)CSc1nnc(SCc2ccccc2Cl)s1	3.5%
CC1(C)NC(=O)N(CC(O)COc2ccccc2[N+](=O)[O-])C1=O (configuration not stated)	-9.3%
COP(=O)(OC)C(NC(=O)Nc1ccccc1)c1ccccc1 (configuration not stated)	-15.3%
COc1ccc(S(=O)(=O)N2CCCCC2)cc1NC(=O)c1ccc(=O)[nH]c1	-6.9%
COc1ccccc1NC(=S)NC(NC(=O)CC(C)C)C(Cl)(Cl)Cl (configuration not stated)	10.2%
COc1ccc(C(CNC(=O)CCNS(=O)(=O)c2ccc(Br)cc2)N2CCOCC2)cc1 (configuration not stated)	8.7%
Cc1ccc(-n2nnnc2CNC(=O)C(C)(C)C)cc1C	21.1%
CC(C)NC(=O)c1onc(CSc2ccc(F)c(F)c2)c1C(=O)O	-19.3%
Nc1nnnn1/N=C/C=C/c1ccccc1	0.7%
CC1CN(C(=O)N2CCC(C(=O)NCCC3=CCCCC3)CC2)c2cc(Cl)ccc2O1 (configuration not stated)	3.0%
COc1ccc(-c2nnc(SCC(=O)c3ccc[nH]3)n2-c2ccccc2)cc1	-8.6%
Cc1ccc(CNC(=O)C2CC(=O)N(C3CCCCCCC3)C2)cc1 (configuration not stated)	1.0%
COCCn1c(C)cc(C(=O)CSc2ncnc3sc4c(c23)CCC4)c1C	-0.6%
Cc1sc2ncnc(SCC(=O)Nc3nc(-c4ccc(F)c(F)c4)cs3)c2c1C	-8.5%
Cc1nn(C(C)C(=O)NCCc2cccs2)c(=O)c2nn(-c3ccccc3)c(C)c12 (configuration not stated)	11.9%
CN1CCC(N(C)C(=O)CNC(=O)c2ccc(C(C)(C)C)cc2)CC1	-3.3%
COc1ccc(NC(=O)Cn2nnc(C(=O)NCc3ccc(C)cc3)c2N)cc1OC	-1.5%
COc1ccc(C(C(=O)NC2CCCCC2)N(C(=O)Cc2c[nH]c3ccccc23)c2ccccc2)cc1OC (configuration not stated)	?
Cc1nc(N2CCOCC2)c2c(C(=O)N3CCN(c4ccccc4)CC3)c(C)oc2n1	2.9%
N=c1n(Cc2ccc(Cl)cc2)c2ccccc2n1CC(O)c1ccco1 (configuration not stated)	-8.0%
O=C(CSc1cccc2cccc(Cl)c12)NC1=NCCS1	11.7%
CC(C)CC(=O)Nc1cccc(NC(=O)c2ccccc2Cl)c1	-4.8%
Cc1cccc(N(C(=O)CNC(=O)c2ccco2)C(C(=O)NC2CCCC2)c2ccncc2)c1 (configuration not stated)	8.3%
COC(=O)c1cc(NC(=O)c2ccc(-c3ccc(Cl)cc3Cl)o2)cc(C(=O)OC)c1	-6.9%
O=C(COc1ccccc1)Nc1ccc(S(=O)(=O)Nc2ccccn2)cc1	15.3%
O=C(CCc1ccccc1)N1CCN(c2ccccc2F)CC1	0.6%
CC(=O)N1CCN(S(=O)(=O)c2cccc(C(=O)NC3CC3)c2)CC1	-7.6%
COCCn1cnc2c1c(=O)n(CC(=O)NN)c(=O)n2Cc1ccccc1	-5.2%
Cc1ccc2c(c1)C(=O)C1(O)CCN(c3ccccc3)C1=N2 (configuration not stated)	-4.9%&9.4%
O=C(NNC(=O)c1ccc(F)c(S(=O)(=O)N2CCOCC2)c1)c1ccc(Br)cc1	-9.3%

The list goes on:
molecule	VDR inhibitor
Cc1c(Cl)cccc1NC(=O)Nc1ccn(C)n1	-5.0%
CON(C)C(=O)CC(CN(Cc1ccccc1)C(=O)OC(C)(C)C)c1ccc(Cl)cc1 (configuration not stated)	-10.6%
Cn1cccc1C1CCCN1CC(=O)Nc1ccc(F)c(F)c1F (configuration not stated)	-6.8%
CC1CCN(C(=O)c2[nH]cnc2C(=O)Nc2ccon2)CC1	6.9%
CSc1ccccc1C(=O)NCCSC(C)(C)C	10.0%
Oc1ccc(CN2CCC(Cc3ccccc3)CC2)c2cccnc12	5.3%
Cc1ccc(S(=O)(=O)N2CCN(S(=O)(=O)c3ccc(C)cc3)C2c2ccccc2)cc1	-3.5%
COc1ccc(CCNC(=O)Cc2cc(OC)c(OC)cc2[N+](=O)[O-])cc1OC	6.1%
O=C(NC1CCCc2c1cnn2-c1cc(F)cc(F)c1)c1cc[n+]([O-])cc1 (configuration not stated)	5.9%
CCCNC(=O)Nc1cc(OCC)c(N2CCOCC2)cc1OCC	-0.3%
COc1ccc(N2CC(NC(=O)c3c(F)cccc3Cl)CC2=O)cc1OC (configuration not stated)	-2.7%
Cc1onc(-c2ccccc2)c1C(=O)c1ccccc1	4.0%
COc1ccc2c(C)c(CCC(=O)NCc3ccccc3OC)c(=O)oc2c1	5.5%
CC1(C)CC(=O)c2sc(N)nc2C1	-6.8%
Cc1ccc(CN2CCC(n3nccc3NC(=O)CCOc3ccccc3)CC2)o1	-12.1%
Cc1ccc(S(=O)(=O)NCC(=O)NCC(=O)OCC(=O)N2CC(=O)Nc3ccccc32)cc1C	-12.2%
COc1ccccc1-c1csc(NC(=O)c2cc(-c3cccs3)nc3ccccc23)n1	5.2%
O=C(OC1C2CCC1C1CN(CCc3ccccc3)CC12)c1ccccc1 (configuration not stated)	-6.1%
CCN1CCN(S(=O)(=O)c2ccc(Cl)c(C(=O)N(CC(C)C)C3CCS(=O)(=O)C3)c2)CC1 (configuration not stated)	18.0%
CCc1c(CN2CCN(c3cccc(C)c3C)CC2)csc1C	13.1%
COc1ccc(C2C3C=CCC(C)C3C(=O)N2Cc2ccccc2)cc1Cl (configuration not stated)	?
Cc1ccc(OCC(O)Cn2c3ccccc3c3ccccc32)cc1 (configuration not stated)	14.0%
CC(C)c1c(O)ccc2c1CCC1[C@@](C)(C=O)CCC[C@@]21C (some centres not stated)	-5.2%
O=C(Nc1ccc(O)cc1C(=O)O)c1ccc2c(c1)C(=O)N(Cc1ccco1)C2=O	-8.5%
O=C(COC(=O)c1ccc(-n2cnnn2)cc1)c1ccc(Br)cc1	2.8%
Cc1ccc(CSc2ncc(Cl)c(C(=O)Oc3ccc(F)cc3)n2)cc1	4.7%
COc1ccccc1C1NC(=O)CCC1[N+](=O)[O-] (configuration not stated)	1.2%
COc1ccccc1C(=O)N1CCNC(=O)C1CC(=O)Nc1ccc(Cl)cc1 (configuration not stated)	0.6%
COc1ccc(S(=O)(=O)NCCOc2ccccc2)cc1F	4.4%
COc1ccc(S(=O)(=O)N2CCN(c3nc(-c4cccs4)nc4ccccc34)CC2)cc1	7.2%&-5.4%
CNc1ccncc1S(=O)(=O)NC	-5.3%
COc1ccc(C2OC[C@H]3O[C@H](O)[C@H](NC(C)=O)[C@@H](O)[C@@H]3O2)cc1 (some centres not stated)	3.9%
O=C(NCc1cccc(C(F)(F)F)c1)c1cccc(S(=O)(=O)N2CCN(Cc3ccccc3)CC2)c1	-11.3%
COc1ccc(O)c(CN2CCC(n3nccc3NC(=O)CCOc3ccccc3)CC2)c1	14.4%
COCC(COS(N)(=O)=O)Cc1ccccc1 (configuration not stated)	-2.2%
CCOc1ccc(NC(=O)CN(C)C(=O)c2sc3ccccc3c2Cl)cc1OCC	-4.4%
Cc1cc(C)nc(Nc2ccccc2Cl)n1	-16.3%
Cc1noc(C)c1COC(=O)c1ccc(S(=O)(=O)NCc2ccco2)cc1	-12.1%
CCCCOC(=O)c1ccc(Nc2nnc(-n3nc(C)cc3C)c3ccccc23)cc1	-5.2%
O=C(CSc1nc(=O)[nH]c2c1CCC2)Nc1cc(C(F)(F)F)ccc1Cl	-2.5%
CCOC(=O)CSCc1csc(CC(=O)Nc2ccccc2C)n1	-7.9%
COC(=O)c1ccccc1NC(=O)CN(C)S(=O)(=O)c1cc(C)ccc1OC	-2.1%
CCOC(=O)c1cc(-c2ccccc2)sc1NC(=O)COC(=O)c1cccc(S(N)(=O)=O)c1	6.1%
CC(NC1CCCC1)C(=O)Nc1ccccc1-c1ccccc1 (configuration not stated)	-8.5%
Cc1ccc2cccc(OCC(=O)N3CCc4ccccc43)c2n1	-17.3%
Cc1c(N(C)C(=O)C2CCCN2S(=O)(=O)c2ccccc2)c(=O)n(-c2ccccc2)n1C (configuration not stated)	7.6%
CCOc1ccc(C(=O)NCCC2=CCCCC2)cc1OCC	10.7%
COC(=O)/C=C/c1cccc([C@H]2[C@@H]3C=CC[C@@H](C)[C@@H]3C(=O)N2Cc2ccccc2)c1	-17.2%&-23.2%
Cc1ccc(Nc2nc3ccccc3[nH]2)nc1	-6.6%
COc1ccc(N2CCN(c3ncnc4scc(-c5ccccc5)c34)CC2)cc1	6.7%
CCc1nc(NCCN)c(C#N)c2c1CSC(C)(C)C2	-7.6%
CCc1nc(SCC(=O)Nc2cc(OC)ccc2OC)c2c(C)c(C)sc2n1	0.4%

Structural class: those above with fluorine
molecule	VDR inhibitor
COC(=O)CN(c1ccc(F)cc1)S(=O)(=O)c1ccc2c(c1)OCCO2	4.6%
CC(C)NC(=O)c1onc(CSc2ccc(F)c(F)c2)c1C(=O)O	-19.3%
Cc1sc2ncnc(SCC(=O)Nc3nc(-c4ccc(F)c(F)c4)cs3)c2c1C	-8.5%
O=C(CCc1ccccc1)N1CCN(c2ccccc2F)CC1	0.6%
O=C(NNC(=O)c1ccc(F)c(S(=O)(=O)N2CCOCC2)c1)c1ccc(Br)cc1	-9.3%
Cn1cccc1C1CCCN1CC(=O)Nc1ccc(F)c(F)c1F (configuration not stated)	-6.8%
O=C(NC1CCCc2c1cnn2-c1cc(F)cc(F)c1)c1cc[n+]([O-])cc1 (configuration not stated)	5.9%
COc1ccc(N2CC(NC(=O)c3c(F)cccc3Cl)CC2=O)cc1OC (configuration not stated)	-2.7%
Cc1ccc(CSc2ncc(Cl)c(C(=O)Oc3ccc(F)cc3)n2)cc1	4.7%
COc1ccc(S(=O)(=O)NCCOc2ccccc2)cc1F	4.4%
O=C(NCc1cccc(C(F)(F)F)c1)c1cccc(S(=O)(=O)N2CCN(Cc3ccccc3)CC2)c1	-11.3%
O=C(CSc1nc(=O)[nH]c2c1CCC2)Nc1cc(C(F)(F)F)ccc1Cl	-2.5%

Bioassay records from PubChem.
